# Compound activity from PubChem.
# VDR inhibitor: blocks the human vitamin D receptor. VDR-SRC2-3 peptide fluorescence polarization, 2 h. Potency, µM, inactives show max response, negative = inhibition, hits mostly inhibitors. 400,000 tested, 0.93% active. AID 504847; active means well fitted inhibition curve with a large enough effect; inconclusive means small, poorly fitted or top-dose-only effect, or another doubt; inactive means no such curve, though single readings can be large or run the other way; further: series mostly up to about 120 µM
# Target sequence (P11473 whole entry, looked up): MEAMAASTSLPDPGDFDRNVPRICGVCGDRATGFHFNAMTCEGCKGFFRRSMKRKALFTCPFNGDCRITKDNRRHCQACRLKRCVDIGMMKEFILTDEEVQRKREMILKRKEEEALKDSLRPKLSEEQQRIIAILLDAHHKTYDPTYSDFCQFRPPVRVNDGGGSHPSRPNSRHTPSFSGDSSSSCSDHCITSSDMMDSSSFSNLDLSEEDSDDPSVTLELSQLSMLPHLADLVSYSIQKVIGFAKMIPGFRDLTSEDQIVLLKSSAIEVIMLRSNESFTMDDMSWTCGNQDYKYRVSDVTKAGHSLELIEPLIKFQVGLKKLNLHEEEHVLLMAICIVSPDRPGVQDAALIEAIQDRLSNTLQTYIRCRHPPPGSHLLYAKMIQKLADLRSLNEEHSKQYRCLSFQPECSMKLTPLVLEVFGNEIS
#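 Two reagent solutions held at 4 deg C in the dark were dispensed, compounds pinned at 23 nl, and the mixture incubated 2 h at room temperature. Read-out: fluorescence polarization of VDR–SRC2-3 peptide binding.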
# Numbers without * were called inactive; ? = inconclusive; & = joins results of further samples; [ ] = remark or other dose. On the % scale 0 is the no-effect control and ±100 the full control effect; potency means the concentration at half of the fitted maximal effect. Some of the compounds tested (hit frequency here may not be typical).
SMILES,VDR inhibitor
CN1CCN(S(=O)(=O)c2cccc(C(=O)O)c2)CC1,-8.2%
CCOCC(=O)Nc1cccc(NC(C)=O)c1,-14.2%
Cc1ccc(CC2CC(=O)N(c3ccncc3)C2=O)cc1 (stereo unspecified),-8.4%
COc1ccc(CC(=O)N2CC(=O)Nc3ccc(Br)cc3C2c2ccc(F)cc2)cc1 (stereo unspecified),8.4%
Cc1ccc(C)c(N2CCN(C(=O)c3cc(C)nc4c3c(C)nn4-c3cccc(F)c3)CC2)c1,3.7%
CCN(CC)S(=O)(=O)c1ccc(-c2nnc(SCC(=O)c3ccc(OC)cc3)o2)cc1,21.1%
Cc1cc(-c2nnc(SCC(=O)Nc3ccc(F)cc3)n2N)n[nH]1,3.7%
Cc1cccc(-n2ncc3c(NCc4ccc5c(c4)OCO5)ncnc32)c1,-12.2%
Clc1ccc(N2CCN(Cc3ccco3)CC2)cc1,12.0%
COCc1[nH]nc2c1C1(CCSCC1)C(C#N)=C(N)O2,1.6%
COCCn1c(=O)c(-c2cn(C)c3ccccc23)nc2cnc(N3CCOCC3)nc21,3.8%
Cc1ccccc1OCC(=O)NCCN(C)C,2.0%
O=C1C=C(c2ccc(C(=O)O)cc2)C[C@@H](c2ccc3c(c2)OCO3)C1,-16.4%
O=C(O)c1nn(Cc2csc(-c3ccccc3)n2)c(=O)c2ccccc12,1.0%
CCOc1cc(-c2noc(CCC(=O)NCC3CCCO3)n2)ccc1OC (stereo unspecified),-17.1%
CCCCC/C=C\C[C@@H](O)/C=C/C=C/C=C\[C@@H](O)CCCC(=O)O,?
O=C1CSC(=S)N1N=Cc1ccc2c(c1)OCO2,?
CCOC(=O)c1c(NC(=O)COC(=O)C2CCC2)sc(C(=O)N(C)C)c1C,16.1%
CN1C(=O)C(C)(C)c2cc(S(=O)(=O)N3CCCC(C(=O)Nc4ccc(Cl)cc4)C3)ccc21 (stereo unspecified),14.8%
CCN1C(=O)C(O)(CC(=O)/C=C/C=C/c2ccccc2)c2ccccc21 (stereo unspecified),-11.6%
COc1cc2c(=O)c(-c3ccc(O)cc3)coc2cc1OC1OC(CO)C(O)C(O)C1O (stereo unspecified),14.3%
CCCCC[C@H](O)/C=C/[C@H]1[C@H](O)CC(=O)[C@@H]1C/C=C\CCCC(=O)O,?
Nc1ccc(Cc2nc3c(ccc4ccccc43)[nH]2)cc1,-10.1%
CCOc1ccc(CN(C)C(=O)CNC(=O)c2sc3ccccc3c2Cl)cc1,-14.6%
COc1ccc(/C=C/C(=O)NCCc2nc3ccccc3[nH]2)cc1,8.6%
O=C(NCc1ccccn1)c1nn(-c2ccccc2Cl)nc1CO,-0.9%
CCc1ccc(C(C)NC(=O)COC(=O)c2ccc(-n3cnnn3)cc2)cc1 (stereo unspecified),-2.7%
CN(C)c1ccc(C(=S)N2CCN(c3ccccc3)CC2)cc1,13.3%
CCCCNC1=NCCS1,3.4%
CCOC(=O)C1(CCOc2ccccc2)CCN(Cc2cccc(OCCO)c2)CC1,?
O=C(CSc1ncn(-c2ccccc2)n1)c1cccs1,0.8%
COc1cccc(NC(=O)CC2C(=O)NC3CCCCC3N2C(=O)c2ccccc2)c1 (stereo unspecified),2.4%
O=C(COc1ccc(Br)cc1)NNC(=O)c1cc(S(=O)(=O)N2CCOCC2)ccc1Cl,-10.5%
COc1ccc(C)cc1NC(=O)C(=O)NCCc1sc(-c2cccc(C)c2)nc1C,-1.9%
COc1cc(C)c(S(=O)(=O)N2CCN(C)CC2)cc1C,-5.7%
CCCc1nn2c(=O)cc(COc3ccc(/C=C(\C#N)C(=O)Nc4ccc(F)cc4)cc3)nc2s1,0.3%
CCOC(=O)c1c(C)[nH]c(N=Nc2ccc(OC)cc2)c1C,-11.2%
O=C(O)Cc1c(-c2ccccc2)c2cc(Cl)ccc2[nH]c1=O,-12.0%
CCOc1cc(C2/C(=C(/O)c3ccc(OC)cc3)C(=O)C(=O)N2CC2CCCO2)ccc1O (stereo unspecified),-0.2%
CC(C)=CCC/C(C)=C/C=N/NC(=O)c1ccc([N+](=O)[O-])cc1,-13.9%

# As entered above.
# `CCCc1nn2c(=O)cc(COc3ccc(/C=C(\C#N)C(=O)Nc4ccc(F)cc4)cc3)nc2s1` | VDR inhibitor = 0.3%
# `O=C(O)Cc1c(-c2ccccc2)c2cc(Cl)ccc2[nH]c1=O` | VDR inhibitor = -12.0%
# `CCOc1cc(C2/C(=C(/O)c3ccc(OC)cc3)C(=O)C(=O)N2CC2CCCO2)ccc1O` (stereo unspecified) | VDR inhibitor = -0.2%
# `COc1cccc(NC(=O)CC2C(=O)NC3CCCCC3N2C(=O)c2ccccc2)c1` (stereo unspecified) | VDR inhibitor = 2.4%
# `COc1cc(C)c(S(=O)(=O)N2CCN(C)CC2)cc1C` | VDR inhibitor = -5.7%

# The listing continues.
SMILES,VDR inhibitor
C#CCOCCOCCOCCNc1nc(N2CCN(C(=O)Cn3cc(CCO)nn3)CC2)nc(N2CCN(C(=O)Cn3cc(CCCCN)nn3)CC2)n1,-10.0%
COC(=O)C(C)NC(=O)C1CCCN1C(=O)CNC(=O)OCc1ccccc1 (stereo unspecified),-2.9%
CC(C)C[C@H](NC(=O)N1CCn2c1nc1ccccc12)C(=O)NC1CC1,-7.2%
COc1ccc(N2C(=O)NC(NC(=O)c3cccnc3)(C(F)(F)F)C2=O)cc1 (stereo unspecified),-8.7%
Nc1nc(N2CCOCC2)nc(N(c2ccccc2)c2ccccc2)n1,3.8%
CCSc1ncc(Cl)c(C(=O)Nc2nc3ccc(S(C)(=O)=O)cc3s2)n1,16.2%
CCOc1ccc(C(=O)COC(=O)Cn2cnc3c2c(=O)n(C)c(=O)n3C)cc1,-14.4%
CCCCC[C@H](O)/C=C/[C@@H]1[C@H]2C/C(=C/CCCC(=O)O)C[C@H]2C[C@H]1O,-3.2%&-24.0%&4.9%
O=C(CCl)N(C1CCCC1)C1CCS(=O)(=O)C1 (stereo unspecified),1.6%
CC1CCN(C(=O)CSc2c3c(nc4ccc(Cl)cc24)CCCC3)CC1,-12.1%
CC1(C)CC(=O)C(C(=O)CCCCC(=O)C2C(=O)CC(C)(C)CC2=O)C(=O)C1,15.8%
CC1CCN(S(=O)(=O)c2ccc(NC(=O)CNC3CCCCC3)cc2)CC1,-7.1%
CC1CCN(C(=O)C(C)OC(=O)c2ccc(S(C)(=O)=O)c([N+](=O)[O-])c2)CC1 (stereo unspecified),-13.7%
CCc1ccccc1NC(=O)c1ccc2nc(C(C)C)oc2c1,9.1%
O=C(OCc1ccccc1)N1CCOCCOCCN(C(=O)OCc2ccccc2)CCOCCOCC1,16.8%
COc1ccc(/C=C2\N=C(c3ccccc3)NNC2=O)cc1,10.7%
Cc1ccc(Nc2nc(NCCCN3CCOCC3)nc(N)c2[N+](=O)[O-])cc1,-13.6%
O=S(=O)(NC1CCC(NS(=O)(=O)c2c(F)cccc2F)CC1)c1ccc2c(c1)OCCO2 (stereo unspecified),1.5%
Cc1ccc2[nH]c(=O)c(Cc3ccccc3)c(O)c2c1,2.3%
COC(=O)c1cc(NC(=O)Cc2ccc(OC)cc2)cc(C(=O)OC)c1,5.0%
CCOc1ccc(CNC(=O)CCCc2cn(C)c3ccccc23)cc1OC,7.2%&8.2%
CCOC(=O)c1c(NC(=O)c2cc(=O)c3cc(C)cc(C)c3o2)sc(C)c1C,0.8%
COc1ccc(S(=O)(=O)Nc2ccc3c(c2)n(C)c(=O)n3C)cc1C,1.2%
CCC(C)NC(=O)c1ccc(CS(=O)(=O)Cc2ccc(Cl)cc2)o1 (stereo unspecified),-21.2%
Cc1ccc(NC(=O)CN2C(=O)c3ccccc3Sc3ccc(C(=O)N4CCOCC4)cc32)cc1F,9.4%
CC[n+]1ccc(C)c2cc(S(=O)C(F)(F)F)ccc21 (stereo unspecified),70.6%[activator]
O=C(CSc1nnc(NC(=O)c2c(F)cccc2F)s1)NCC1CCCO1 (stereo unspecified),-7.3%
O=C(CN(Cc1cccs1)C(=O)CNS(=O)(=O)c1ccccc1)NC1CCCC1,-1.7%
Cc1noc(C)c1NC(=O)Nc1cccc2c1O[C@H](CN(C)C(=O)Nc1ccc(C(F)(F)F)cc1)[C@@H](C)CN([C@H](C)CO)C2=O,-10.5%
COc1cc(/C=N/NC(=O)c2ccc(Cl)cc2)ccc1OCC(=O)N1CC(C)OC(C)C1 (stereo unspecified),-4.0%
CCOc1ccc(-c2nc3c(c(SCC(=O)N4CCCCC4)n2)Cc2cccc(OC)c2O3)cc1,3.2%
CC(=O)N(C)c1ccc(NC(=O)Nc2ccc(C)c(C)c2)cc1,3.3%
Cc1ccc(CNC2=NCCCCC2)n1C,-10.8%
O=C(Nc1ccccc1)N1CCC(c2nc(-c3ccc(S(=O)(=O)N4CCOCC4)cc3)no2)CC1,3.2%
CC(/C=C/c1ccc(O)cc1)=N/O,-2.1%
O=C(Nc1nnc(CCN2CCCCC2)s1)c1ccc(Cl)cc1Cl,0.3%
C=CC[C@H](CC(=O)N(CCO)Cc1ccccc1)C(=O)N[C@H](C)COC(=O)[C@@H](CC=C)Cc1ccc(F)cc1,7.7%
Cc1ccc(C(=O)C(C)OC(=O)C2CCN(c3ccc(C(F)(F)F)cn3)CC2)cc1C (stereo unspecified),-6.7%
O=C(NC1CCCc2ccccc21)c1n[nH]c(=O)c2ccccc12 (stereo unspecified),-28.4%
CC(C)(C)c1ccc(NC(=O)COC(=O)C2=COCCO2)cc1,-1.2%
Cc1ccc(C2C=NN(c3ccccc3)C2=O)cc1 (stereo unspecified),4.1%
Clc1ccc(-c2cc(CN3CCOCC3)no2)cc1,-19.4%
N#Cc1cn(-c2ccccc2)nc1-c1ccccc1,16.0%
CCC(C)C(NC(=O)c1ccc(Cl)cc1)C(=O)Nc1cccnc1 (stereo unspecified),33.3%[activator]
C=CCNC(=O)CN(c1ccccc1OCC)S(=O)(=O)c1ccc(C)cc1,-2.1%
CC(=O)N/C(=C/c1ccc2c(c1)OCO2)C(=O)NCC(=O)O,-13.1%
COc1cccc2sc(N)nc12,7.7%
CCOCC(=O)N(CC)Cc1ccccc1,-13.3%
COCc1cc(C)nc(Oc2ccccc2)c1C#N,-7.9%
Cc1ccc(Cn2ccc(NC(=O)CCSc3nc(-c4ccco4)cc(C(F)(F)F)n3)n2)cc1,-7.7%

# More entries.
SMILES,VDR inhibitor
Cc1ccc(NC(=O)c2ccc(Cl)c(S(=O)(=O)N3CCCC3)c2)nc1,3.0%
CCN(CC1CCCO1)C(=O)c1cc(COc2ccc(F)cc2F)on1 (stereo unspecified),-5.5%
CCN1/C(=C\C(=S)Nc2ccccc2)Sc2ccccc21,?
COc1ccc(C)cc1NC(=O)c1sc2nc(-c3ccc(F)cc3)cn2c1C,6.7%
COc1ccc(NS(=O)(=O)N2CCOCC2)cc1,-5.2%
O=C(COC(=O)c1ccc(Br)o1)NCc1ccc2c(c1)OCO2,-17.6%
Cn1c(=O)n(C)c2cc(N3CCOCC3)c(NS(=O)(=O)c3ccc(C(C)(C)C)cc3)cc21,3.1%
CCCC12CN3CCN(CC(C3)/C1=N\NC(=O)Nc1ccccc1)C2,-12.9%
FC(F)(F)c1cc(-c2ccco2)nc(-n2nc(C(F)(F)F)cc2C2CC2)n1,-5.5%
CCCCCn1nc(C(=O)N(CC(C)C)c2c(N)n(CCCC)c(=O)[nH]c2=O)c2ccccc2c1=O,5.4%
COc1ccc(C)cc1NC(=O)CCS(=O)(=O)c1ccc2c(c1)CC(=O)N2C,2.9%
Cc1ccc(CNC(=O)C2CC(c3ccccc3C(F)(F)F)=NO2)o1 (stereo unspecified),-7.3%
O=c1ncn(-c2cccc([N+](=O)[O-])c2)c2ccccc12,-0.9%
Nc1nonc1-n1nnc(C(=O)N/N=C/c2ccc(O)cc2)c1CN1CCCCCC1,-19.4%
Cc1cc(OCc2cc(C(=O)N(C)CCCN3CCOCC3)no2)cc(C)c1Cl,-11.4%
CCOc1ccc(N(C)S(=O)(=O)c2c(C(=O)N3CCC(C)CC3)c(C)n(C)c2C)cc1,-3.0%
COc1ccc(NC(=O)C23CCC(C2)C(C)(C)C3=O)cc1 (stereo unspecified),7.5%
O=C(Nc1ccccc1)C1=C[C@H](c2csc3ccccc23)C[C@H](OCc2ccc(CO)cc2)O1,6.1%
O=C(O)c1ccc(N/N=C/c2ccc(OC(=O)c3cccc(Cl)c3)cc2)cc1,-13.2%
COc1ccc(C(=O)Nc2ccc(S(=O)(=O)N3CCN(C)CC3)cc2)cc1,16.3%

# An excerpt from above in order of length of the SMILES, highest first.
SMILES,VDR inhibitor
O=C(O)c1ccc(N/N=C/c2ccc(OC(=O)c3cccc(Cl)c3)cc2)cc1,-13.2%
COc1ccc(C(=O)Nc2ccc(S(=O)(=O)N3CCN(C)CC3)cc2)cc1,16.3%
Cc1cc(OCc2cc(C(=O)N(C)CCCN3CCOCC3)no2)cc(C)c1Cl,-11.4%

# Other results.
SMILES,VDR inhibitor
CC(=O)Nc1ccc(S(=O)(=O)N[C@@H](C)C(=O)N(C)Cc2cccs2)cc1,20.3%
Cc1ccc(Nc2nnns2)cc1,79.4µM*
O=C(O)C1(O)C[C@@H](O)C(O)[C@H](O)C1 (stereo partly specified),-3.6%
COCCn1cnc2c(c1=O)c1nc3ccccc3nc1n2/N=C/c1ccc(OC)c(OC)c1,-2.4%
O=[N+]([O-])c1cccc(C2=NCCS2)c1,-13.2%
CN1C(=O)C(=O)/C(=C(/O)c2ccc(Br)cc2)C1c1cccc([N+](=O)[O-])c1 (stereo unspecified),-16.2%
CN(C)C(=O)N1CCNCC1,-20.0%
Cc1nc2nc3c(cn2n1)C(=O)CC(c1ccccc1)C3 (stereo unspecified),-7.4%
CCOc1ccc(CN2CCNC(=O)C2CC(=O)NCc2csc(C(C)C)n2)cc1 (stereo unspecified),-2.4%
CCOC1(OCC)C(c2ccc(Cl)cc2)C(C#N)(C#N)C1(OCC)OCC (stereo unspecified),-23.3%
Cc1ccc(Oc2nc3ccccn3c(=O)c2/C=C(\C#N)C(=O)Nc2c(C)n(C)n(-c3ccccc3)c2=O)c(C)c1,?
CCCCCC1CCC(C(=O)NCCN2CCOCC2)CC1 (stereo unspecified),-21.6%
